BJeLR lethal = kills HRASV12-expressing BJeLR cells. BJeLR (HRASV12) viability, CellTiter-Glo ATP luminescence, 48 h; reference of the scale not given here. inhibition, % (concentration not given with the values). actives 0.17% (n = 300,000). AID 1554;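 active = replicate mean above 50%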;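 also: 50 nL library stock added to about 25 µL; numbers are from one replicate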
Bead autofluor = flagged as autofluorescent in microsphere protease counterscreen. compound autofluorescence counterscreen, microsphere flow cytometry; active compounds read high. fluorescence intensity (test concentration not listed). actives 3.1% (n = 360,000). AID 624483;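 active = at least 3 SD above the mean of all compounds, about 16000 in these data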;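 also: 100 nL of 1 mM stock went into each well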
ugtP null kill = compounds lethal to S. aureus RN4220 ugtP deletion mutant. actives 0.54% (n = 330,000). OD600 growth, 16 h; some inactives read as strong as hits. growth inhibition, % (test concentration not listed);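 active = z-score under -3 and OD600 up to 0.15 on both plates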;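 also: plate controls were untreated wells for no effect and antibiotic for full effect; wells of about 80 µL received 100 nL stock; the first replicate is given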
RN4220 kill = S. aureus RN4220 growth inhibition. inhibition, % (concentration not given with the values). OD600, 16 h. actives 0.33% (n = 330,000). AID 1259311;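 active = z-score of -3 or lower and OD600 up to 0.18 on both plates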;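 also: plate controls were untreated cells for no effect and reference antibiotic for full effect; stock transfer was 100 nL into about 80 µL; one replicate is shown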
PrP UTR inh = inhibition of PrP 5' UTR reporter expression | cell-based PrP 5' UTR mRNA reporter, plate reader | AID 488862 | actives 0.35% (n = 340,000) | inhibition, % (concentration not given with the values);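 active = every replicate at 50% or more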;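 also: 0 = median of the neutral control wells; tested in H4 reporter cells; numbers are from one replicate; inactives centre near -14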
Mtb hypoxia inh = inhibitors of hypoxia-regulated fluorescent reporter in Mycobacterium tuberculosis | M. tuberculosis hypoxia-regulated fluorescent reporter, fluorescence | fluorescence inhibition, % (test concentration not listed) | actives 0.1% (n = 300,000);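 active = 35 to 45% if threefold the growth effect, above 45% if 1.5-fold the growth effect; inactive = the rest, general growth blockers included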;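 also: wells of about 50 µL received 100 nL stock; 0% = vehicle wells and 100% = reference inhibitor wells; whole bacteria with a GFP reporter of the hypoxia response; strong numbers were not always called active; many hits fall short of the cut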
Mtb hypoxia inh growth = further read-out of Mtb hypoxia inh, marked with its call; growth inhibition, %; measured here: M. tuberculosis growth (absorbance);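 0% = vehicle and 100% = reference antibiotic; read after six days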
Starred values were filed as active, the others as inactive; x = not tested or not shown.

Structure,BJeLR lethal,PrP UTR inh,Mtb hypoxia inh,Bead autofluor,Mtb hypoxia inh growth,RN4220 kill,ugtP null kill
O=C1NN(c2ccccc2)C(=O)/C1=C/c1ccc(-c2ccc(C(=O)O)cc2)o1,10.1,-27.7,9.0,3630,2.5,-3.4,5.1
Cn1c(Sc2ccc(C(F)(F)F)cc2[N+](=O)[O-])nnc1-c1ccccc1,2.0,-12.7,5.4,18706*,18.8,1.7,7.3
COc1ccc(CN(C)C(=O)c2ccccc2Sc2ccccc2C#N)c(OC)c1,-4.3,-17.6,2.8,6524,4.9,0.5,-13.4
N#Cc1ccccc1NC1=CC(=O)CCC1,1.7,-26.9,7.0,11271,8.6,3.1,8.4
Nc1ccnc(Oc2ccc(F)cc2)c1,2.4,-29.4,13.5,2446,10.6,5.2,-4.1
COc1ccc(N2C(=O)C3C4C=CC(c5ccccc5)(C3C2=O)C2C(=O)N(c3ccc(OC)cc3)C(=O)C42)cc1 (configuration not stated),-2.7,-13.5,-3.1,4287,0.6,2.3,2.2
COc1ccc(-n2nc(C(=O)NCC(=O)NCc3ccccc3OC)c3ccccc3c2=O)cc1,-9.0,-3.9,4.6,3604,-0.3,3.4,-1.1
CCOC(=O)CSc1nc2c([nH]c3ccccc32)c(=O)n1C,-4.5,-22.4,6.3,4092,11.5,5.6,-0.6
CC(C)OC(=O)C1C(=O)CC(C)(O)C(C(=O)OC(C)C)C1c1ccccc1 (configuration not stated),1.9,-16.3,8.6,2171,8.0,1.2,3.3
CCC(=O)Nc1ccc2c(c1)C(=O)N(C1CCCCC1)C2=O,-0.8,-22.5,1.5,6029,7.4,2.8,-10.6
CCCCC(=O)NS(=O)(=O)c1ccc(N=NN(CC)CC)cc1,4.6,-9.8,11.4,2522,-10.8,8.0,-5.7
CC1=NN(C(=O)Cc2ccc(C)cc2)C(O)(c2cccnc2)C1 (configuration not stated),-13.0,-19.5,3.7,9657,1.3,8.8,1.9

New compounds follow
Structure,BJeLR lethal,PrP UTR inh,Mtb hypoxia inh,Bead autofluor,Mtb hypoxia inh growth,RN4220 kill,ugtP null kill
CCc1cc(=O)oc2cc(C)c(CN3CCCCC3)c(O)c12,-5.7,-21.9,6.5,x,1.4,0.2,6.2
COc1ccc(OCCOC(=O)c2cc(S(=O)(=O)N3CCOCC3)c(Cl)cc2Cl)cc1,3.1,-10.3,11.9,4200,-6.0,3.3,11.0
COc1ccc(-c2ccc([C@H]3[C@H]4C=CC[C@@H](C)[C@@H]4C(=O)N3Cc3ccccc3)c(F)c2)cc1C,1.4,-16.1,x,3727,x,x,x
CCOc1ccc2nc(SCC(=O)NC3CCS(=O)(=O)C3)[nH]c2c1 (configuration not stated),3.4,-8.7,-1.5,2863,2.4,-6.9,4.9
CN(C)c1ccc(C2C3C(=O)N(c4ccc(C(=O)O)cc4)C(=O)C3ON2c2ccccc2)cc1 (configuration not stated),0.0,-5.3,x,4866,x,2.2,-3.0
O=c1c2c(n3cnnc3n1-c1ccccc1)-c1ccccc1CC21CCCC1,-11.3,-32.1,-2.9,1927,8.3,-2.9,3.9
c1ccc(NCn2cncn2)nc1,-0.9,-46.6,9.4,2496,2.4,-6.9,1.2
c1ccc2c(c1)CCCN2Cc1nnc2n1CCCCC2,-2.2,-15.8,1.4,12659,4.6,4.9,-3.0
C#Cc1ccc(CN2CCC(C(=O)Nc3ccc(Oc4ccccc4)nc3)CC2)cc1,0.4,-16.6,11.1,6644,6.6,-0.1,9.9
Cc1ccc(NS(=O)(=O)c2ccc(C)c(C(=O)N3CCOCC3)c2)cc1,3.9,-0.4,-11.8,6327,0.0,-0.7,-1.1
COc1cc(-c2noc(C)c2C(=O)NCCCn2ccnc2)cc(OC)c1OC,x,-22.1,10.1,3047,8.5,4.6,-6.3
CC(C)n1cnnc1SCC(=O)NCC(=O)Nc1ccc(F)cc1,x,-13.7,-5.8,4107,8.6,-0.2,1.7

Quoted from the listing, 2 compounds:
Structure,BJeLR lethal,PrP UTR inh,Mtb hypoxia inh,Bead autofluor,Mtb hypoxia inh growth,RN4220 kill,ugtP null kill
CCc1cc(=O)oc2cc(C)c(CN3CCCCC3)c(O)c12,-5.7,-21.9,6.5,x,1.4,0.2,6.2
COc1ccc(OCCOC(=O)c2cc(S(=O)(=O)N3CCOCC3)c(Cl)cc2Cl)cc1,3.1,-10.3,11.9,4200,-6.0,3.3,11.0

(list continues)
Structure,BJeLR lethal,PrP UTR inh,Mtb hypoxia inh,Bead autofluor,Mtb hypoxia inh growth,RN4220 kill,ugtP null kill
O=C(c1ccc(F)cc1)N1CCCC(C(=O)N2CCc3ccccc3C2)C1 (configuration not stated),1.1,-7.8,6.1,3627,-0.7,0.4,-3.1
O=C(CCCCn1c(=O)[nH]c2ccccc2c1=O)NC1CCN(Cc2ccccc2)CC1,-4.1,-11.0,5.5,4399,5.7,0.7,9.9
NS(=O)(=O)c1ccc(NC(=O)C2CCCO2)cc1 (configuration not stated),3.6,x,17.2,x,1.5,5.4,10.2
COc1cccc(CNC(=O)c2cnc(-c3ccccn3)nc2C(F)(F)F)c1,7.8,-2.2,x,4166,x,x,x
COc1ccc2nc(SCC(=O)Nc3c(C)cccc3C)[nH]c2c1,-7.0,-1.5,x,4574,x,2.9,1.8
Cc1ccnc(NS(=O)(=O)c2ccc(NS(C)(=O)=O)cc2)n1,8.2,-4.4,7.5,3500,11.7,4.4,4.7
NC(=O)/C(=C/c1ccc2c(c1)OCO2)NC(=O)c1ccco1,9.0,-6.7,-2.6,4520,-2.5,-0.2,0.6
Cn1cc(CN2CCN(Cc3ccccc3)CC2)c(-c2cccc(Cl)c2)n1,-0.8,-0.5,-8.6,4961,9.7,2.2,12.1
CCCC(C(=O)NC1CCCC1)N(Cc1ccc(F)cc1)C(=O)c1snc(C(N)=O)c1N (configuration not stated),6.7,-0.5,0.6,3967,6.1,2.3,8.2
Cc1cccc2sc(NNC(=O)c3ccc4c(c3)OCCO4)nc12,6.8,-17.1,-4.9,4290,4.3,4.9,-8.3

Rewritten with two lines to a compound: part of the list above.
The line under a structure holds: BJeLR lethal | PrP UTR inh | Mtb hypoxia inh | Bead autofluor | Mtb hypoxia inh growth | RN4220 kill | ugtP null kill
> CN(C)c1ccc(C2C3C(=O)N(c4ccc(C(=O)O)cc4)C(=O)C3ON2c2ccccc2)cc1 (configuration not stated)
→ 0.0 | -5.3 | x | 4866 | x | 2.2 | -3.0
> O=c1c2c(n3cnnc3n1-c1ccccc1)-c1ccccc1CC21CCCC1
→ -11.3 | -32.1 | -2.9 | 1927 | 8.3 | -2.9 | 3.9
> c1ccc(NCn2cncn2)nc1
→ -0.9 | -46.6 | 9.4 | 2496 | 2.4 | -6.9 | 1.2
> c1ccc2c(c1)CCCN2Cc1nnc2n1CCCCC2
→ -2.2 | -15.8 | 1.4 | 12659 | 4.6 | 4.9 | -3.0
> C#Cc1ccc(CN2CCC(C(=O)Nc3ccc(Oc4ccccc4)nc3)CC2)cc1
→ 0.4 | -16.6 | 11.1 | 6644 | 6.6 | -0.1 | 9.9
> Cc1ccc(NS(=O)(=O)c2ccc(C)c(C(=O)N3CCOCC3)c2)cc1
→ 3.9 | -0.4 | -11.8 | 6327 | 0.0 | -0.7 | -1.1
> COc1cc(-c2noc(C)c2C(=O)NCCCn2ccnc2)cc(OC)c1OC
→ x | -22.1 | 10.1 | 3047 | 8.5 | 4.6 | -6.3
> CC(C)n1cnnc1SCC(=O)NCC(=O)Nc1ccc(F)cc1
→ x | -13.7 | -5.8 | 4107 | 8.6 | -0.2 | 1.7
> O=C(c1ccc(F)cc1)N1CCCC(C(=O)N2CCc3ccccc3C2)C1 (configuration not stated)
→ 1.1 | -7.8 | 6.1 | 3627 | -0.7 | 0.4 | -3.1
> O=C(CCCCn1c(=O)[nH]c2ccccc2c1=O)NC1CCN(Cc2ccccc2)CC1
→ -4.1 | -11.0 | 5.5 | 4399 | 5.7 | 0.7 | 9.9
> NS(=O)(=O)c1ccc(NC(=O)C2CCCO2)cc1 (configuration not stated)
→ 3.6 | x | 17.2 | x | 1.5 | 5.4 | 10.2
> COc1cccc(CNC(=O)c2cnc(-c3ccccn3)nc2C(F)(F)F)c1
→ 7.8 | -2.2 | x | 4166 | x | x | x
> COc1ccc2nc(SCC(=O)Nc3c(C)cccc3C)[nH]c2c1
→ -7.0 | -1.5 | x | 4574 | x | 2.9 | 1.8
> Cc1ccnc(NS(=O)(=O)c2ccc(NS(C)(=O)=O)cc2)n1
→ 8.2 | -4.4 | 7.5 | 3500 | 11.7 | 4.4 | 4.7
> NC(=O)/C(=C/c1ccc2c(c1)OCO2)NC(=O)c1ccco1
→ 9.0 | -6.7 | -2.6 | 4520 | -2.5 | -0.2 | 0.6

Compound activity from PubChem BioAssay.
